NS1 function inh = inhibitors of influenza NS1 protein function | Potency, µM (top dose mostly 46.1 µM), inactives show at the top dose activity, positive = more growth | AID 2326 | S. cerevisiae slowed by influenza A NS1, growth recovery by OD600 | hit rate 0.4% among 270,000; active means well fitted rising curve with a large enough effect; inconclusive means small, poorly fitted or top-dose-only effect; inactive means no such curve, though single readings can be large or run the other way; note: nearly all actives have a fitted effect of over 50% in size
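In this qHTS, NS1 from influenza A is expressed in budding yeast, where it slows growth. Cells are switched from glucose to 2% galactose medium (pH 6.0, -URA), treated with compound, and growth recovery is read at OD600.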
Cruzain Triton = inhibitors of Trypanosoma cruzi cruzain with detergent | Potency, µM, inactives show max response, negative = inhibition, most hits filed as inhibitors | hit rate 0.43% among 200,000 | P25779 | purified cruzain, Z-FR-AMC fluorescence, 0.01% Triton;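 note: plate controls were neutral wells for no effect and buffer without enzyme for full effect; nearly all actives have a fitted effect of over 40% in size; top concentration of the series not given in the record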
Target sequence (P25779 123-467 limits assumed): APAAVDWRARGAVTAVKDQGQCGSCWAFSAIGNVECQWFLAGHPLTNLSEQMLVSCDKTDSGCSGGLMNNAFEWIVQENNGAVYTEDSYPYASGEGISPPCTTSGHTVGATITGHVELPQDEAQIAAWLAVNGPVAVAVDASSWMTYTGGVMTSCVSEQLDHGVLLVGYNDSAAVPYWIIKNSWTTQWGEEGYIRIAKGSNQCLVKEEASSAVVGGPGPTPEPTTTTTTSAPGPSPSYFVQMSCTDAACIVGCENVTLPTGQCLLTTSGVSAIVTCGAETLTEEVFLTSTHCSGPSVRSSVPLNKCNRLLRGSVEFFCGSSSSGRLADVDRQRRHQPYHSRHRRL
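Sodium acetate buffer (100 mM, pH 5.5) containing 5 mM DTT and 0.01% Triton X-100 hosted 1.5 nM cruzain and test compound for 15 min at room temperature. Cleavage of 2 uM Z-FR-AMC was then tracked by fluorescence.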
StopGo reporter = FMDV 2A StopGo reporter, luciferase signal | hit rate 1.2% among 410,000 | AID 1159524 | Potency, µM (highest dose often 57.9 µM), inactives show at the highest dose signal change, negative = less light | human cells with a luciferase reporter of 2A StopGo recoding; control for the full effect not named in the record; active = well fitted falling curve with a large enough effect; inconclusive = small, poorly fitted or top-dose-only effect; inactive = no such curve, though single readings can be large or run the other way; tested in HEK293T cells; note: % is set by controls: 0 for no effect and ±100 for the full control effect; nearly all actives have a fitted effect of over 45% in size; luciferase light after 4 h
Marburg entry inh = blocks Marburg virus binding to or entry into cells; Marburg virus pseudotyped entry inhibition, cell reporter; control for the full effect not named in the record; about a third of the inactives were read at about 46 µM; Potency, µM (series often up to 37.8 µM), for the others: at the top dose activity change, negative = inhibition, most hits filed as inhibitors; hit rate 1.8% among 300,000; AID 540276; active = well fitted inhibition curve with a large enough effect; inconclusive = small, poorly fitted or top-dose-only effect, or effect the other way; inactive = flat fitted curve, though single readings scatter; tested in HEK293 cells; about a fifth of its hits are not listed in these tables; note: % is set by controls: 0 for no effect and ±100 for the full control effect; luciferase read-out
Cruzain inh noDet = cruzain (T. cruzi) inhibition without detergent | hit rate 2.3% among 200,000 | P25779 | Potency, µM, for the others: max response, negative = inhibition, actives largely listed as inhibitors | purified cruzain, Z-FR-AMC fluorescence, no detergent;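 note: plate controls were enzyme without inhibitor for no effect and buffer without enzyme for full effect; nearly all actives have a fitted effect of over 40% in size; top concentration of the series not given in the record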
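Detergent-free condition (0.00005% Triton X-100) in acetate buffer pH 5.5 with DTT. 1.5 nM enzyme and compound were pre-mixed 15 min, then 2 uM Z-FR-AMC substrate added; reaction progress from fluorescence change between first and third reads (60 s).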
Lassa entry inh = blocks Lassa virus binding to or entry into cells. AID 540256. Lassa virus pseudotype entry inhibition, cell reporter; control for the full effect not named in the record. hit rate 1.2% among 300,000. Potency, µM (highest dose often 37.9 µM), for inactives: top-dose activity change, negative = inhibition, most hits filed as inhibitors; active means well fitted inhibition curve with a large enough effect; inconclusive means small, poorly fitted or top-dose-only effect, or effect the other way; inactive means flat fitted curve, though single readings scatter; tested in HEK293 cells; note: % is set by controls: 0 for no effect and ±100 for the full control effect; nearly all actives have a fitted effect of over 50% in size; luciferase read-out
RE007 growth inh = less growth of the S. pombe RE007 Vpr strain | S. pombe RE007 Vpr strain, BacTiter-Glo ATP luminescence, 24 h; control for the full effect not named in the record | Potency, µM (highest dose often 92.2 µM), inactives show top-dose activity change, negative = less growth | hit rate 0.21% among 360,000 | AID 651644; active = well fitted falling curve with a large enough effect; inconclusive = small, poorly fitted or top-dose-only effect; inactive = no such curve, though single readings can be large or run the other way;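 note: % is set by controls: 0 for no effect and ±100 for the full control effect; nearly all actives have a fitted effect of over 50% in size; the assay follows cell death caused by Vpr and the record does not say whether a fall means rescue or toxicity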
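Fission yeast RE007 carrying one integrated HIV-1 vpr copy, seeded at OD 0.01 in PMG+AL medium with 23 nL pinned compound. Grown 24 h at 30 degrees; viability read by BacTiter-Glo luminescence after 5 min.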
SARS PLpro yeast = inhibitors of SARS-CoV papain-like protease in yeast | S. cerevisiae expressing SARS-CoV PLpro, growth rescue; control for the full effect not named in the record | Potency, µM (doses to about 32.9 µM), for inactives: top-dose activity, positive = growth rescue | hit rate 0.19% among 330,000 | AID 485353; active means well fitted rising curve with a large enough effect; inconclusive means small, poorly fitted or top-dose-only effect; inactive means no such curve, though single readings can be large or run the other way; note: 0% is about no effect; nearly all actives have a fitted effect of over 55% in size; growth read by luminescence after 48 h
An asterisk follows results filed as active; u = inconclusive; x = no result given; & = joins results of further samples; [ ] = dose if it differs, or a comment. Unless noted, calls come from the whole dose curve; as a rule, active = well fitted curve in the direction sought with a large enough effect; inconclusive = small, poorly fitted or top-dose-only effect, or another doubt; inactive = no such curve, though single readings can be large; an effect the other way counts as inactive or inconclusive. Potency is the fitted concentration of half-maximal effect. An unsorted share of the library, and some 4.7% of all compounds hit somewhere here.

SMILES	NS1 function inh	Cruzain Triton	StopGo reporter	Marburg entry inh	Cruzain inh noDet	Lassa entry inh	RE007 growth inh	SARS PLpro yeast
CCOc1cc(CNn2cn[nH]c2=S)cc(Cl)c1OCc1ccccc1F	16%	-10%	u	u	2%	u	x	-2%
COc1ccc(C(=O)NNC(=O)CSc2nnc(-c3cccnc3)n2C)cc1	-2%	x	-11%	3%	x	3%	7%	-1%
CCCOC(=O)c1c(NC(=O)C2c3ccccc3Oc3ccccc32)sc2c1CCCC2	x	-3.9%	-4%	u	25µM*	-28%[46.1 µM]	x	x
Cc1ccc(C(=O)c2oc3ccccc3c2NC(=O)C(C)Oc2ccccc2Cl)cc1 (stereo unspecified)	x	-1.7%	-10%	12%[46.1 µM]	-2%	-1%[46.1 µM]	x	x
Cc1cccc(NC(=O)CSc2nnc(-c3ccco3)o2)c1	7%	1.0%	11%	0%	-6%	1%	13%	-10%
COc1ccc(/C=C(/NC(=O)c2ccco2)C(=O)N2CCCCCC2)cc1OC	9%	x	15%	-2%	x	7%	u	-1%
CC(=O)Nc1ccc2oc(C)nc2c1	0%	x	-12%	12%[46.1 µM]	x	-1%[46.1 µM]	15%	-1%
COc1ccccc1CNC(=O)COC(=O)c1ccc(C(=O)c2ccccc2)cc1	x	x	-6%	19%	x	3%	-18%	0%
Cc1c2n(c3ccccc13)CCC2=O	-5%	x	-4%	-12%[46.1 µM]	x	1%[46.1 µM]	-19%	-2%
O=C1CC(N2CCN(c3ccccn3)CC2)C(=O)N1c1ccc(Cl)cc1 (stereo unspecified)	-1%	x	-19%	x	x	x	u	-6%
COc1cc(CN(C(=S)NCC(=O)O)C2CCCC2)cc(OC)c1OC	x	x	-6%	u	x	-11%[46.1 µM]	-2%	-1%
CCOC(=O)c1cnc2c(OC)cccc2c1Nc1ccc2c(c1)OCCO2	-4%	-11%	u	u	-6%	-28%	-5%	0%
O=C(CC1C(=O)NCCN1CC1CCCCC1)NCc1cccc(F)c1F (stereo unspecified)	-1%	x	0%	-7%[46.1 µM]	x	-20%	-9%	0%
Cc1cccc(OCC(=O)Nc2cccc3cccnc23)c1C	x	-1.6%	-2%	4%[46.1 µM]	7%	13%[46.1 µM]	x	x
CCC(=O)N1CCN(CCN=CC2=C(O)CC(C)(C)CC2=O)CC1	0%	-2.4%	-14%	12%	0%	-12%	4%	1%
Cc1oc(CC(C)C)cc1C(=O)Nc1cccc2ccccc12	-49%	-12%	-4%	-3%	-2%	-6%	15%	-13%
C/C(=N\NC(=O)c1ccc(CN2CCc3ccccc3C2)cc1)c1ccccc1O	x	x	22µM*	u	x	-29%[46.1 µM]	-16%	17%
O=C(CNC(=O)c1ccccc1F)N/N=C/c1cc(Br)ccc1OCc1ccccc1	20%	-1.7%	-15%	-5%	u	x	-1%	23%
Cc1ccc(Cn2c(=O)n(CCc3ccccc3)c(=O)c3c(C)c(C)sc32)cc1	x	-0.2%	-6%	1%[46.1 µM]	-10%	12%[46.1 µM]	x	x
O=C(CCCCn1c(=O)c2ccccc2n(Cc2ccccc2F)c1=O)NC1CCN(Cc2ccccc2)CC1	x	x	-16%	0%[46.1 µM]	x	-20%	-4%	2%
CCC(=O)n1nc(-c2cccnc2)nc1NCc1cccs1	x	x	-1%	-31%	x	u	5%	2%
N#C/C(=C\C1CC=CCC1)c1nc2ccccc2[nH]1 (stereo unspecified)	-83%	0.0%	u	u	8%	u	2%	-20%
CC1(C)CC(=O)C2=C(C1)NC(SCC(=O)Nc1ccccc1)=C(C#N)C2c1ccco1 (stereo unspecified)	2%	-7.4%	-1%	14µM*	4%	u	9%	1%
CCN(CC)S(=O)(=O)c1cccc(C(=O)NC2=NCCS2)c1	-138%	x	9%	0%[46.1 µM]	x	9%[46.1 µM]	10%	-22%
C(=N\Nc1nnnn1-c1ccccc1)/c1ccncc1	9%	-1.8%	30%[activator]	u	5%	9%	-13%	-1%
SMILES	NS1 function inh	Cruzain Triton	StopGo reporter	Marburg entry inh	Cruzain inh noDet	Lassa entry inh	RE007 growth inh	SARS PLpro yeast
COc1ccc(C2SCC(=O)Nc3c2c(=O)[nH]n3C2CCCCCC2)cc1 (stereo unspecified)	7%	2.4%	-28%	2%	-12%	6%	13%	-4%
CCOc1ccc(C2=CS/C(=C(\C#N)c3nnc4n3CCCCC4)N2CC)cc1	-10%	-1.1%	u	u	-6%	u	12%	-1%
Cc1cccc(N2C(=O)C(Cl)=C(Nc3c(C)n(C)n(-c4ccccc4)c3=O)C2=O)c1C	5%	-1.1%	x	-17%	-3%	2%	-1%	0%
COc1ccc(C(=O)COC(=O)CNC(=O)C2CCCCC2)c(OC)c1	-33%	4µM*	7%	15%	6.3µM*	u	11%	11%
COc1ccc(C(C)=O)cc1CSc1nnc(Nc2ccc(C)cc2)s1	-7%	-8.8%	0%	u	u	u	-8%	-4%
COc1ccc(S(=O)(=O)N(CC(C)C)CC(C)C)c2cccnc12	-65%	-2.9%	-10%	x	u	x	-5%	-3%
Cc1cccc(N2CC(C(=O)Nc3nc4ccc(S(C)(=O)=O)cc4s3)CC2=O)c1C (stereo unspecified)	0%	x	-22%	-4%	x	2%	5%	6%
CCCCc1nnc(SCc2cc(=O)c3cc(F)ccc3[nH]2)n1C	x	1.8%	-25%	x	-13%	1%[46.1 µM]	x	x
CC(OC(=O)Cc1cccc(C(F)(F)F)c1)C(=O)Nc1ccc(Cl)cn1 (stereo unspecified)	-32%	x	-17%	9%	x	12%	-30%	-6%
O=C(OCC(=O)N1CCCC1)c1ccccc1OCc1ccccc1	-40%	3.9%	20%	u	0%	22%	0%	-1%
Cc1cccc(NC(=S)N/N=C/c2c[nH]c3ccccc23)c1	2%	u	-2%	u	-24%	u	-7%	-89%
Cc1cc(=O)c2ccc(C(F)(F)F)cc2[nH]1	1%	x	8%	-15%[46.1 µM]	x	8%	-1%	-1%
COc1cc(C(=O)OCc2cc(=O)n3nc(C(C)C)sc3n2)cc(OC)c1OC	x	-3.0%	-10%	x	25%	-24%[46.1 µM]	x	x
O=C1NCCN(Cc2ccc(F)cc2)C1=O	x	0.6%	6%	x	-15%	17%[46.1 µM]	x	x
CC(C)(C)OC(=O)NCCCC[C@@H](C(=O)N1CCN(C(=O)OC(C)(C)C)CC1)n1cc(C(CO)NC(=O)OC(C)(C)C)nn1 (stereo partly specified)	0%	x	-7%	x	x	x	14%	0%
Cc1cc(C(=O)N2CCCC(Nc3ccc(F)cc3)C2)c(C)o1 (stereo unspecified)	-5%	x	0%	x	x	x	0%	17%
Cc1ccc(C)c(S(=O)(=O)N2CCN(C(=O)c3cccn3C)CC2)c1	x	x	-15%	-1%	x	u	3%	4%
COc1ccc(N2CCN(C(=O)CCN3C(=S)NC(C)(C)CC3C)CC2)cc1 (stereo unspecified)	x	x	4%	-5%[46.1 µM]	x	x	-2%	-4%
CCOC(=O)C1=C(C)N(C)C2(C)CC1c1ccccc1O2 (stereo unspecified)	-11%	0.0%	5%	u	-6%	u	18%	0%
Cn1c(=O)n(C)c2cc(N3CCOCC3)c(NS(=O)(=O)c3ccc(F)cc3)cc21	x	-0.8%	-5%	7%[46.1 µM]	3%	-3%[46.1 µM]	x	x
Cc1ccc(CN(C(=O)c2sc3ccccc3c2Cl)C2CCS(=O)(=O)C2)cc1 (stereo unspecified)	26%	-6.3%	-21%	-19%	1%	-6%	13%	18%
O=C(CSc1nccc(=O)[nH]1)Nc1cc(C(F)(F)F)ccc1N1CCOCC1	-2%	x	-1%	10%	x	2%	2%	0%
Cc1nn(CC(=O)NC2CC2)c(=O)c2cc3cc(F)ccc3n12	x	-0.5%	1%	-17%[46.1 µM]	3%	x	x	x
COc1cccc(-c2ccc3nnc(SCC(=O)N4CCOCC4)n3n2)c1	x	x	-9%	4%	x	17%	2%	1%
O=C(CNc1ccc(F)cc1)N/N=C1\CCc2ccccc21	-15%	x	17%	-18%[14.2 µM]	x	8%	-8%	-3%
SMILES	NS1 function inh	Cruzain Triton	StopGo reporter	Marburg entry inh	Cruzain inh noDet	Lassa entry inh	RE007 growth inh	SARS PLpro yeast
Nc1nnc(SCC(=O)c2cccc([N+](=O)[O-])c2)s1	x	x	-12%	-4%[46.1 µM]	x	u	18%	2%
COCC(C)n1c(C)cc(C(=O)CSc2nnc(Nc3ccccc3F)s2)c1C (stereo unspecified)	18%	-3.2%	u	u	-7%	u	-5%	-9%
CC(=O)c1c(C(C)=O)c(C)n(-c2ccc3ncccc3c2)c1C	-3%	x	-11%	14%[46.1 µM]	x	u	8%	2%
CN(c1ccc(C(=O)NCc2ccncc2)cc1)S(C)(=O)=O	-7%	-1.0%	0%	0%	-20%	-22%	12%	0%
Cn1cccc1C(=O)NS(=O)(=O)c1ccccc1Cl	-8%	0.0%	-12%	5%	-4%	-1%	12%	-22%
COC(=O)[C@@]1(Cc2ccc(OC)cc2)[C@H]2c3cc(C(=O)N(C)C)n(Cc4ccc(OC(F)(F)F)cc4)c3C[C@H]2CN1C(=O)c1ccccc1	u	-2.2%&-5.3%	-29%	9.2µM*	u	u	11%	0%
CCCCOc1ccccc1C(=O)N(Cc1sccc1C)C1CCS(=O)(=O)C1 (stereo unspecified)	x	-3.9%	-11%	-5%[46.1 µM]	-5%	8%[46.1 µM]	x	x
Oc1ccc(-c2nc3ncccn3c2Nc2ccc3c(c2)OCCO3)cc1	-31%	-3.3%	-12%	-2%[46.1 µM]	5%	8%	16%	4%
COCCCNC(=O)CCCN1C(=O)CCn2nc(-c3cccn3C)cc21	x	0.5%	-8%	x	-5%	3%[46.1 µM]	x	x
O=C(Cn1nnc2ccccc2c1=O)NC1CCCc2ccccc21 (stereo unspecified)	-5%	2.1%	3%	4%	u	u	6%	3%
C=CCN(c1ccccc1)S(=O)(=O)c1cccc(C(=O)O)c1	5%	1.7%	-21%	13%	-5%	u	-10%	-3%[6.58 µM]
CNC(=O)NC(=O)COC(=O)c1cccc(S(=O)(=O)N2CC3(C)CC2CC(C)(C)C3)c1 (stereo unspecified)	x	x	-16%	18%	x	-2%	10%	-8%

Compound activity (PubChem)
